Source: PubChem
StopGo reporter = lowers the luciferase signal of an FMDV 2A StopGo reporter. human cells with a luciferase reporter of 2A StopGo recoding; control for the full effect not named in the record. 410,000 tested, 1.2% active. Potency, µM (titrated, usually from 57.9 µM), for inactives: at the highest dose signal change, negative = less light; active = well fitted falling curve with a large enough effect; inconclusive = small, poorly fitted or top-dose-only effect; inactive = no such curve, though single readings can be large or run the other way; tested in HEK293T cells; further: on the % scale 0 is the no-effect control and ±100 the full control effect; nearly all actives have a fitted effect of over 45% in size; luciferase light after 4 h
NS1 function inh = blocks influenza NS1 protein function; 270,000 tested, 0.4% active; S. cerevisiae slowed by influenza A NS1, growth recovery by OD600; AID 2326; Potency, µM (highest dose often 46.1 µM), without a hit: at the top dose activity, positive = more growth; active means well fitted rising curve with a large enough effect; inconclusive means small, poorly fitted or top-dose-only effect; inactive means no such curve, though single readings can be large or run the other way; further: nearly all actives have a fitted effect of over 50% in size
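S. cerevisiae expressing influenza A NS1, grown in glucose, washed, then diluted 1:100 into pH 6.0 -URA galactose medium with 23 nl compound. Growth recovery read as OD600; NS1-free strain serves as control.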
SARS PLP yeast = blocks SARS-CoV papain-like protease in a yeast assay. S. cerevisiae expressing SARS-CoV PLpro, growth rescue; control for the full effect not named in the record. Potency, µM (doses to about 32.9 µM), for the others: top-dose activity, positive = growth rescue. 330,000 tested, 0.19% active. AID 485353; active means well fitted rising curve with a large enough effect; inconclusive means small, poorly fitted or top-dose-only effect; inactive means no such curve, though single readings can be large or run the other way; further: 0% is about no effect; nearly all actives have a fitted effect of over 55% in size; growth read by luminescence after 48 h
Lassa entry inh = blocks Lassa virus binding to or entry into cells; Lassa virus pseudotype entry inhibition, cell reporter; control for the full effect not named in the record; Potency, µM (top dose mostly 37.9 µM), for the others: top-dose activity change, negative = inhibition, most hits filed as inhibitors; 300,000 tested, 1.2% active; active means well fitted inhibition curve with a large enough effect; inconclusive means small, poorly fitted or top-dose-only effect, or effect the other way; inactive means flat fitted curve, though single readings scatter; tested in HEK293 cells; further: on the % scale 0 is the no-effect control and ±100 the full control effect; nearly all actives have a fitted effect of over 50% in size; luciferase read-out
Cruzain noTriton = cruzain (T. cruzi) inhibition without detergent. P25779. purified cruzain, Z-FR-AMC fluorescence, no detergent. Potency, µM, for inactives: max response, negative = inhibition, hits mostly inhibitors. 200,000 tested, 2.3% active;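 further: plate controls were enzyme without inhibitor for no effect and buffer without enzyme for full effect; nearly all actives have a fitted effect of over 40% in size; top concentration of the series not given in the record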
Target sequence (P25779 123-467 limits assumed): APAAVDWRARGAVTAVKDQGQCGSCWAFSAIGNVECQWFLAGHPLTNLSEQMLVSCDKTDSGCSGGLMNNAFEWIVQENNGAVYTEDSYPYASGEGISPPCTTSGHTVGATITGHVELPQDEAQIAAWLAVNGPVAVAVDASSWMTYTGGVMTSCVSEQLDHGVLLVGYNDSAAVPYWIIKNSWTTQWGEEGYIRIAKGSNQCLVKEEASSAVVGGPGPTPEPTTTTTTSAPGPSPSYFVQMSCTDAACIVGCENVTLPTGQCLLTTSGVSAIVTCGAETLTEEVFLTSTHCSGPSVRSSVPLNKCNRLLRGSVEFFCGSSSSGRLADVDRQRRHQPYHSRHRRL
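Purified cruzain at 1.5 nM, pre-incubated 15 min with compound at room temperature in 100 mM sodium acetate pH 5.5, 5 mM DTT, 0.00005% Triton X-100. Reaction started with 2 uM Z-FR-AMC; AMC fluorescence increase over 60 s gives rate.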
Cruzain Triton = cruzain (T. cruzi) inhibition with detergent; P25779; purified cruzain, Z-FR-AMC fluorescence, 0.01% Triton; Potency, µM, for inactives: max response, negative = inhibition, actives largely listed as inhibitors; 200,000 tested, 0.43% active; AID 1478;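 further: plate controls were neutral wells for no effect and buffer without enzyme for full effect; nearly all actives have a fitted effect of over 40% in size; top concentration of the series not given in the record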
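Compounds were screened in titration against cruzain (1.5 nM) with 0.01% Triton X-100 to counter colloidal aggregation. Activity was the AMC fluorescence increase over 60 s after adding 2 uM Z-FR-AMC at pH 5.5.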
MARV entry inh = Marburg virus entry inhibition | Marburg virus pseudotyped entry inhibition, cell reporter; control for the full effect not named in the record; about a third of the inactives were read at about 46 µM | Potency, µM (doses to about 37.8 µM), without a hit: at the top dose activity change, negative = inhibition, hits mostly inhibitors | 300,000 tested, 1.8% active | AID 540276; active = well fitted inhibition curve with a large enough effect; inconclusive = small, poorly fitted or top-dose-only effect, or effect the other way; inactive = flat fitted curve, though single readings scatter; tested in HEK293 cells; about a fifth of its hits are not listed in these tables; further: on the % scale 0 is the no-effect control and ±100 the full control effect; luciferase read-out
RE007 growth inh = less growth of the S. pombe RE007 Vpr strain; S. pombe RE007 Vpr strain, BacTiter-Glo ATP luminescence, 24 h; control for the full effect not named in the record; Potency, µM (doses to about 92.2 µM), inactives show top-dose activity change, negative = less growth; 360,000 tested, 0.21% active; active = well fitted falling curve with a large enough effect; inconclusive = small, poorly fitted or top-dose-only effect; inactive = no such curve, though single readings can be large or run the other way;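 further: on the % scale 0 is the no-effect control and ±100 the full control effect; nearly all actives have a fitted effect of over 50% in size; the assay follows cell death caused by Vpr and the record does not say whether a fall means rescue or toxicity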
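Fission yeast strain RE007, carrying one chromosomally integrated HIV-1 vpr copy, was seeded at OD 0.01 in PMG+AL medium with 23 nL pinned compound. After 24 h at 30 °C and 99% humidity, viability was read by BacTiter-Glo luminescence.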
* = called active by the depositor; ? = inconclusive; . = not tested or not shown; & = joins results of further samples; [ ] = dose if it differs, or a comment. Unless noted, the call rests on the fitted dose curve; in most records, active means well fitted curve in the direction sought with a large enough effect; inconclusive means small, poorly fitted or top-dose-only effect, or another doubt; inactive means no such curve, though single readings can be large; an effect the other way counts as inactive or inconclusive. Potency means the concentration at half of the fitted maximal effect.

SMILES	StopGo reporter	NS1 function inh	SARS PLP yeast	Lassa entry inh	Cruzain noTriton	Cruzain Triton	MARV entry inh	RE007 growth inh
CCOC(=O)C(C)(C)Sc1nc2c(cnn2-c2ccc(C)cc2)c(=O)[nH]1	-17%	-18%	-2%	-2%	-12%	-5.9%	-7%[46.1 µM]	16%
COc1cc2c(cc1OC)C(C)N(C(=O)c1cc(Cl)nc(Cl)c1)CC2 (stereo unspecified)	-29%	1%	2%	.	.	.	.	15%
COc1cc(C(=S)N2CCCC2)ccc1OCc1ccccc1	15%	-10%	20%	-28%[46.1 µM]	.	.	?	-11%
CCOC(=O)c1c(N)n[nH]c1-c1ccccc1	7%	-15%	-8%	-21%	-3%	-2.6%	-3%	11%
Cc1ccc(/C=N/N2CCN(C3c4ccccc4-c4ccccc43)CC2)o1	-18%	?	-1%	.	.	.	.	-11%
COc1cc(C(=O)NC2CCCc3ccccc32)cc(OC)c1C (stereo unspecified)	23%	8%	0%	0%[46.1 µM]	.	.	?	3%
O=C(O)c1ccc(N2C(=O)CC(N3CCN(c4cccc(C(F)(F)F)c4)CC3)C2=O)cc1 (stereo unspecified)	-15%	7%	-5%	0%[46.1 µM]	.	.	-1%[46.1 µM]	-15%
COc1ccc(CC(=O)OCC(=O)Nc2ccc3c(c2)OCCO3)cc1OC	-6%	3%	9%	10%	4%	-4.1%	0%	-9%
Cn1c(-c2ccc(Cl)cc2)cnc1NCc1cc2c(cc1[N+](=O)[O-])OCO2	-8%	-11%	6%	?	-1%	-0.8%	?	0%
CCS(=O)(=O)Nc1ccc(NC(C)=O)cc1	-5%	-9%	8%	8%	-1%	0.7%	-8%	1%
Cc1nc(C(=O)Nc2ccccc2Cl)cc2c1[nH]c1ccccc12	19%	6%	0%	7%	2%	4.4%	7%	16%
C/C(CC(=O)Nc1ccccn1)=N\NC(=O)c1cnccn1	11%	-2%	1%	.	.	.	.	-5%
CCOC(=O)Cc1nnc(Nc2ccc(C(=O)NC)cc2)c2ccccc12	-9%	4%	0%	1%	.	.	-4%[46.1 µM]	-8%
O=C(NCc1ccco1)c1cc2n(n1)C(C(F)(F)F)CC(c1ccc(Cl)c(Cl)c1)N2 (stereo unspecified)	-29%	4%	0%	-10%	6%	-9.7%	?	21%
CCN(CC)C(=O)CSc1nc2ccccc2c(=O)n1-c1cccc(OC)c1	-28%	-2%	-2%	-2%	-1%	-2.2%	0%	1%
O=C(OCc1nc2ccsc2c(=O)[nH]1)c1ccco1	3%	.	2%	29%	.	.	3%	12%
O=C(Cc1ccccc1)Nc1nnc(-c2ccco2)s1	44%[activator]	-5%	3%	0%	?	5.1%	?	-3%
COc1ccc(NC(=S)NCC2CCN(c3ccc(OC)cc3)C2)cc1 (stereo unspecified)	-19%	?	16%	?	-9%	-7.5%	?	12%
COc1ccc(S(=O)(=O)N2CCOCC2)cc1NC(=O)c1ccccc1-c1ccc(C(F)(F)F)cc1	16%	?	4%	6.3µM*	?	-4.7%	?	-4%
Cc1ccc(-c2nn(CC(=O)Nc3cccc(C(F)(F)F)c3)c(=O)c3ccccc23)cc1	3%	.	.	.	-17%	-4.2%	?	.
Cc1ccc(Nc2nc3ccccc3c3nncn23)c(Cl)c1	-8%	.	.	0%[46.1 µM]	1%	0.5%	?	.
COc1cccc(C(=O)CN2CCN(S(=O)(=O)c3ccc(Cl)cc3)CC2)c1	-12%	.	.	-5%[46.1 µM]	-5%	-5.6%	.	.
CCOC(=O)c1c(C)[nH]c(-c2csc(C)n2)c1C	0%	-4%	-6%	3%	.	.	?	-18%
O=C(CNC(=S)N(Cc1ccccc1)Cc1ccccc1F)NCCc1ccccc1	34%[activator]	.	-10%	?	.	.	?	2%
Cc1cc(N/N=C/c2ccccc2)nc(N)n1	7%	1%	-1%	.	.	.	.	2%

Further results:
SMILES	StopGo reporter	NS1 function inh	SARS PLP yeast	Lassa entry inh	Cruzain noTriton	Cruzain Triton	MARV entry inh	RE007 growth inh
CC(CNC(=O)c1ccc2c(c1)nc1n2CCCCC1)c1ccccc1 (stereo unspecified)	10%	.	.	?	-13%	-0.9%	.	.
CN1CCc2c(sc3nc(NN)n(Cc4ccccc4)c(=O)c23)C1	-22%	9%	1%	-2%[46.1 µM]	.	.	?	-5%
CCc1ccc2c(c1)C(c1ccc(N3CCOCC3)cc1)=NNC(c1ccncc1)=N2	19%	1%	-2%	-20%[46.1 µM]	.	.	?	-22%
O=C(CCc1ccccc1)Nc1cccnc1Cl	10%	1%	0%	-1%[46.1 µM]	.	.	?	9%
O=C(CCNS(=O)(=O)c1ccc2c(c1)CCN2C(=O)C1CC1)Nc1ccc(F)cc1F	0%	.	.	-15%[46.1 µM]	-2%	-1.8%	.	.
CC1(C)CC(O)CC(C)(C)N1CC(O)COCc1ccccc1 (stereo unspecified)	-8%	-6%	1%	?	.	.	-13%[46.1 µM]	-1%
O=C(CSc1nc2ccccc2c(=O)n1Cc1ccco1)N1CCN(c2ccccc2)CC1	-17%	6%	-4%	?	1%	-2.5%	?	-6%
CN(C)/C=N/c1ncn(-c2ncc(C(F)(F)F)cc2Cl)n1	14%	.	-1%	5%[46.1 µM]	.	.	?	6%
Nc1nc2ccc(Cc3ccncc3)cc2s1	45%[activator]	0%	1%	-15%[46.1 µM]	.	.	-35%[46.1 µM]	1%
Cc1ccc(C)c(N2CCN(C(=O)c3nn(C)c4c3CS(=O)(=O)c3ccccc3-4)CC2)c1	?	-11%	-6%	1%[46.1 µM]	3%	-2.8%	.	1%
CCOc1ccc(C(=O)c2cnc3ccc(Cl)cc3c2S(=O)(=O)c2ccc(C)cc2)cc1	?	.	.	.	11%	-0.1%	?	.
O=C(Nc1ccc([N+](=O)[O-])cc1Br)c1cc2ccccc2nc1Cl	21%	-5%	0%	-43%	.	.	?	3%
COc1ccc(-c2nc3ccccc3o2)cc1NC(=O)c1ccc(-c2ccc(C)c(Cl)c2)o1	29%	.	.	7%[46.1 µM]	9%	-1.6%	.	.
Cc1cc(Cl)c(S(=O)(=O)Nc2cccc(O)c2)cc1OCC(N)=O	-9%	14%	0%	3%	3%	1.6%	13%	9%
CCn1c(=O)c(C(=O)NCCCO)c(O)c2ccccc21	0%	-80%	-4%	6%	14%	-4.0%	-10%	-23%
Nc1ncnc2c1nc(Sc1ccc(Cl)cc1)n2[C@H]1O[C@@H]2COP(=O)(O)O[C@H]2[C@@H]1O	.	0%	.	.	-5%	-1.9%	?	.
CCCN(Cc1nnc(-c2ccccc2Cl)o1)C(=O)c1cc2ccccc2o1	-11%	.	0%	?	.	.	17%[46.1 µM]	-16%
CCOC(=O)c1cnc2c(OC)cccc2c1N1CCN(c2ccccc2OC)CC1	?	-45%	-11%	?	?	-10%	?	1%
CCOC(=O)N1CCC(NC(=O)c2cc(S(=O)(=O)NCCc3ccccc3)ccc2F)CC1	-9%	-15%	?	-20%&-2%	14%	-3.5%	5%&1%	0%
COc1cc(NC(=O)Cn2nc(C(F)(F)F)c(Br)c2C)cc([N+](=O)[O-])c1	40µM*	3%	-16%	0%	6%	-8.7%	?	20%
COc1ccc(-c2cc(C(=O)NC3CCCC3)c3ccccc3n2)cc1OC	3%	.	.	20%[46.1 µM]	.	.	0%[46.1 µM]	7%
Cc1cc(C(=O)Nc2ccc(N3CCOCC3)c3nonc23)ccc1[N+](=O)[O-]	-6%	-4%	0%	0%[46.1 µM]	.	.	16%[46.1 µM]	-9%
CC(C)N(C)Cc1nnnn1CC(=O)N(C)Cc1cccc(Cl)c1	-12%	2%	-1%	.	.	.	.	-11%
CC(=O)c1cccc(NC(=O)N2C3CCC2CC(O)(c2cccnc2)C3)c1 (stereo unspecified)	-6%	6%	0%	14%	-5%	10%	-3%	6%
CCOC(=O)c1c(N)sc(C(=O)OCCOC)c1C	53%[activator]	.	1%	-10%	.	.	-14%[46.1 µM]	-11%

Continuation:
SMILES	StopGo reporter	NS1 function inh	SARS PLP yeast	Lassa entry inh	Cruzain noTriton	Cruzain Triton	MARV entry inh	RE007 growth inh
COc1ccc2c(CCNC(=O)CN3C(=O)c4ccccc4C3=O)c[nH]c2c1	-9%	18%	-15%	11%	-9%	-3.8%	?	8%
COc1ccccc1CN1CC(C(=O)NCCN2CCNC2=O)CCC1=O (stereo unspecified)	-13%	6%	9%	.	.	.	.	-2%
O=C(O)c1cccc(S(=O)(=O)N2CCc3ccccc3C2)c1	-11%	-8%	12%	-1%	.	.	0%	-4%
Cc1[nH]c2ccccc2c1C1C(c2ccccc2)=NN=C(C(C)C)N1O (stereo unspecified)	4%	-16%	14%	8%	1%	-8.4%	-11%	-9%
CC1(C)Cc2c(C#N)c(SCc3ccccc3)nc(N3CCOCC3)c2CO1	-13%	8%	0%	?	22%	-5.9%	?	20%
COc1ccc(NS(=O)(=O)c2ccc(C)c(NC(=O)NC3CCCCC3)c2)cc1	-19%	8%	18%	10µM*	-4%	-6.3%	?	17%
CC1=CC(C)(C)N2C(=O)C3(NCCc4c3[nH]c3ccccc43)c3cccc1c32 (stereo unspecified)	-19%	-12%	1%	.	.	.	?	-8%
CC(=O)Nc1cccc(C(=O)NC2CCCc3c2cnn3-c2cc(C)cc(C)c2)c1 (stereo unspecified)	20%	0%	5%	?	.	.	?	1%
COc1ccccc1NC(=O)Cn1c(=O)oc2ccccc21	7%	2%	4%	11%	-6%	0.5%	4%	2%
CCCSc1cc(N)cc([N+](=O)[O-])c1	-20%	.	-5%	1%	.	.	-18%[46.1 µM]	-13%
Cc1ccc(N=Nc2ccc(N)cc2C)c(S(N)(=O)=O)c1	49%[activator]	1%&6%	-1%	22%	-9%	-2.8%	1%[46.1 µM]	-2%
Cc1ccc(-c2csc(NC(=O)C3=COCCO3)n2)cc1	-16%	-8%	-63%	-27%	1%	-6.5%	?	?
